miR-21 FLuc: raises the signal of a miR-21 reporter | Potency, µM (top dose mostly 38.3 µM), for inactives: at the highest dose reporter change, positive = more light | 340,000 tested, under 10 active | AID 2288 | HeLa miR-21 FLuc reporter, luciferase, 48 h; active = well fitted rising curve with a large enough effect; inconclusive = small, poorly fitted or top-dose-only effect; inactive = no such curve, though single readings can be large or run the other way;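 note: % of control where 0% means no effect; miR-21 action dims this reporter so a rising signal means less miR-21 action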
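Using DMEM plus 10% FBS, HeLa miR-21-FLuc cells are incubated with test compounds (final up to about 40uM) for 48 hours; firefly luciferase signal is then imaged following reagent-mediated lysis.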
Rango complex inh: inhibitors of Rango-importin beta complex formation | Rango CFP/YFP FRET sensor + importin beta, 45 min | Potency, µM (top dose mostly 92.2 µM), for inactives: top-dose inhibition of complex formation | actives 0.031% (n = 340,000) | AID 540263; active = rising FRET ratio curve, often small or poorly fitted; inconclusive = mostly compound fluorescence or quenching in the first reads; inactive = flat curves in all reads;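 note: potency is the fitted concentration of half-maximal effect; 0% = DMSO wells and 100% = buffer wells lacking importin beta; nearly all actives have a fitted effect of over 15% in size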
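FRET biosensor (snurportin 1 IBB flanked by EYFP and cerulean), 50 nM, with compound 5 min, then 0.125 microM importin beta in PBS, 1 mM DTT, 0.02% Tween-20, 0.1% BSA. CFP/YFP ratio read after 45 min at room temperature; pre-read flags interference.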
Rango dissoc inh: prevents RanGTP from dissociating the Rango-importin beta complex; AID 540253; Potency, µM (doses to about 46.1 µM), inactives show top-dose activity change, negative = inhibition; actives 0.071% (n = 340,000); Biochemical FRET Rango-importin beta, RanGTP-induced dissociation; active means falling FRET ratio curve, often poorly fitted, with flat reads before Ran was added; inconclusive means other falling curves, or compound fluorescence or quenching; inactive means flat or rising ratio curve;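 note: potency is the fitted concentration of half-maximal effect; % of control where 0% means no effect; nearly all actives have a fitted effect of over 45% in size; -100% = wells without RanGTP and RCC1; the record marks most hits as doubtful in a second field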
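Quantitative HTS using a FRET biosensor: 0.1 uM Rango, 0.25 uM importin beta, 0.6 uM Ran, 2 mM GTP, 0.2 uM RCC1 final, PBS with DTT, Tween-20 and BSA. Post-read taken 45 min after Ran addition.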
GLA inh pH 4.5: blocks human alpha-galactosidase A at pH 4.5; activity change, negative = inhibition, % at 105 µM; 230,000 tested, under 10 active; P06280; purified enzyme, 4-MU-alpha-Gal fluorescence, pH 4.5; AID 1467; inconclusive = small, poorly fitted or top-dose-only inhibition, or a rising curve; inactive = flat fitted curve, though single readings scatter; no compound was filed as active;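 note: 0% = full activity with enzyme and -100% = basal without enzyme; dose as in the result columns while the protocol names 77 µM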
Target sequence (P06280 whole entry, looked up): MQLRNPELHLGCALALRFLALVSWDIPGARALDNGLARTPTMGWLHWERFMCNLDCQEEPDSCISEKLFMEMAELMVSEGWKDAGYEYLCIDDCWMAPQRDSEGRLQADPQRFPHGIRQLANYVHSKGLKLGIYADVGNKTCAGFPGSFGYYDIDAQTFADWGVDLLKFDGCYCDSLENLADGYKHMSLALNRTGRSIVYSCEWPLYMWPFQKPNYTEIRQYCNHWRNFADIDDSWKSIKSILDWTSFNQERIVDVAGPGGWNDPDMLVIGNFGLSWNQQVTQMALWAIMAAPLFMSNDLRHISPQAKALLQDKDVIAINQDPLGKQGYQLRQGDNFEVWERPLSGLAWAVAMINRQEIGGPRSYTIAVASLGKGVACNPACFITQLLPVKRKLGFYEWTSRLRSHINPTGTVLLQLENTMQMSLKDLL
Starred values were filed as active, the others as inactive; ? = inconclusive; . = no result given; & = joins results of further samples; [ ] = another dose, or the depositor's remark. These rows are one share of the data, so the mix of outcomes need not match the whole.

miR-21 FLuc,Rango complex inh,Rango dissoc inh,GLA inh pH 4.5,compound
0%,1.3%,2%,-13,O=S(=O)(c1ccc(Nc2ccc(-c3ccc4c(c3)OCCO4)nn2)cc1)N1CCCC1
?,-0.6%,3%,-10,COC(=O)Cc1ccc(NC(=O)c2ccc(C(C)(C)C)cc2)cc1
-6%,-0.5%,14%,12,O=C(O)c1ccccc1NCCO
-5%,-5.8%,4%,.,CCn1c(SCC(=O)N2CCCC2)nnc1-c1ccco1
.,-2.1%,-1%,.,Cc1ccc(S(=O)(=O)N2CCCCC2)cc1NC(=O)CCNC(=O)c1ccc([N+](=O)[O-])cc1
2%,-1.2%,-12%,-3,Cc1ccc2[nH]c(=O)c(C(c3nnnn3C(C)(C)C)N(Cc3ccco3)CC3CCCO3)cc2c1 (centres undefined)
-3%,-5.3%,-8%,0,CN(C)c1nc2n(c(=O)n1)C(C#N)CS2 (centres undefined)
0%,?,?,6,CCOC(=O)Cc1nc2ccccc2[nH]1
-2%,-2.4%,-13%,-1,CCOc1ccc(N2C(=O)/C(=C/c3ccccc3)N=C2SC)cc1
-3%,2.8%,4%,.,C=CCSc1nnc(NC(=O)CCNC(=O)c2ccco2)s1
0%,?,?,4,O=C(NC1CCCC1)c1cnn2c(C(F)(F)F)cc(-c3ccc4c(c3)OCO4)nc12
.,0.6%,-6%,.,CCN(CC)C(=O)[C@H]1C[C@H](CC(=O)NCc2cccc(C(F)(F)F)c2)C(=O)N2CCc3c([nH]c4cc(-c5ccco5)ccc34)[C@]12C
-1%,0.8%,11%,1,COC(=O)c1ccc(CN2CCN(CCCc3ccccc3)C(CCO)C2)cc1 (centres undefined)
-6%,-1.4%,-8%,.,O=C(Nc1cccc(Cl)c1)N1CCOCC1
-3%,-0.3%,-5%,.,CC(C)(C)NS(=O)(=O)c1ccc(CCC(=O)NCc2ccccn2)cc1
-28%,-5.5%,2%,5,CC(Sc1nnc(-c2ccc(C(C)(C)C)cc2)n1C)C(N)=O (centres undefined)
-4%,2.1%,8%,.,Cc1ccc(Sc2cc(C(=O)NCCN(C)C)c3ccccc3n2)cc1
.,0.2%,2%,.,CCCOc1ccc(C(CC(=O)O)NC(=O)C(c2ccccc2)c2ccccc2)cc1 (centres undefined)
.,-0.3%,-8%,.,COC(=O)c1ccc(N2CCN(C)CC2)c(NC(=O)c2sc3ccccc3c2Cl)c1
-10%,-0.5%,6%,-9,COc1cc(C(=O)N2CCN=C2c2ccccc2)cc(OC)c1OC

The listing continues.
miR-21 FLuc,Rango complex inh,Rango dissoc inh,GLA inh pH 4.5,compound
.,2.7%,9%,.,CCCCN(C(=O)c1cccs1)c1c(N)n(Cc2ccccc2)c(=O)[nH]c1=O
1%,3.4%,-18%,10,O=C(CSc1ncn[nH]1)Nc1ccccc1-c1ccccc1
1%,-1.1%,-3%,5,CCC(=O)c1ccc(OCC(=O)NC2(C#N)CCCCC2)cc1
0%,-3.9%,1%,-16,COC(=O)c1cc(C(C)=O)n2ccccc12
-2%,-3.8%,5%,.,O=C(Nc1ccc(O)cc1)c1ccc2c(c1)C(=O)N(Cc1cccnc1)C2=O
-24%,4.3%,-20%,-2,COC(=O)CNS(=O)(=O)c1ccc(Cc2ccc(S(=O)(=O)NCC(=O)OC)cc2)cc1
2%,1.1%,-7%,5[21.1 µM],Cc1ccc(OCC(=O)N/N=C/c2ccc3c(c2)OCO3)cc1C
-1%,?,1%,.,COc1cccc(C(=O)NCC(=O)N/N=C/c2cccnc2)c1
0%,4.2%,-5%,-1,COCCN(C(=O)CSc1nnc(Nc2ccc(C)cc2)s1)c1c(N)n(CC(C)C)c(=O)[nH]c1=O
-7%,?,-21%,3,COc1ccc(C2C3=C(CC(C)(C)CC3=O)Nc3cc4c(cc32)OCO4)cc1 (centres undefined)
-46%,-3.7%,-14%,-6,Cc1ccc(/C(N)=N/OC(=O)c2cccc(F)c2)cc1
.,2.5%,7%,.,CC(=O)Nc1ccc(C(=O)NN2C(=O)NC3(CCCCC3)C2=O)cc1
0%,2.5%,-2%,.,COc1ccc(-n2nc(C(=O)NCC(=O)NC3CCCCC3)c3ccccc3c2=O)c(OC)c1
-2%,-3.3%,-10%,.,N/N=C(\c1ccccc1)c1cc(Br)ccc1N
-1%,2.2%,11%,-9,O=C(Nc1ccccc1)c1ccc(S(=O)(=O)NCc2ccco2)cc1
-4%,3.1%,16%,-3,Cc1cc(CN2C(=O)c3ccccc3C2=O)no1
-9%,0.2%,-7%,-2[21.1 µM],COCCOC(=O)c1sc2nc[nH]c(=O)c2c1C
-6%,1.0%,1%,6,S=c1[nH]nc(Cc2cccc3ccccc23)o1
.,2.6%,14%,.,Cc1ccc(NC(=O)C(=O)NCC2CCCN2S(=O)(=O)c2cccs2)cc1 (centres undefined)
-4%,0.2%,9%,.,Cc1nonc1NC(=O)CSc1nnnn1-c1ccccc1

(cont.)
miR-21 FLuc,Rango complex inh,Rango dissoc inh,GLA inh pH 4.5,compound
.,?,9%,.,O=C(NCc1ccccc1)C1=C[C@H](c2ccc(Br)cc2)C[C@H](OCCCCO)O1
-5%,0.0%,6%,-3,O=C(CSc1nc2cc(Cl)ccc2s1)N1CCCc2ccccc21
-9%,-0.1%,1%,-11,CC(C)CC(=O)NCCCN1CCN(CCCNC(=O)CC(C)C)CC1
.,-0.1%,-4%,.,COc1cc(OC)c(C(=O)OCC(=O)NC2CCCCCCC2)cc1OC
-3%,-1.3%,2%,4,C#CC(C)(C)NC(=O)c1sccc1Oc1ccc(F)cc1[N+](=O)[O-]
-3%,-4.0%,3%,-1,Cc1nn2c(SCC(=O)c3cccs3)cc(C(C)(C)C)nc2c1-c1ccccc1
21%,?,?,.,CC(C)N1CCc2c(sc(NC(=O)C3CCCCC3)c2C(N)=O)C1
-1%,6.3%,-3%,-1,CCOc1ccc(-n2c(=S)sc3c(=O)[nH]c(SCC(=O)NCC4CCCO4)nc32)cc1 (centres undefined)
-1%,0.3%,-1%,.,COc1ccc(CCNS(=O)(=O)c2ccc(-n3cnnn3)c(OC)c2)cc1OC
-19%,-3.8%,-6%,.,Cc1[nH]n(-c2ccc(Br)cc2)c(=O)c1/C=N/NC(=O)c1ccccc1
-7%,3.4%,37%,-6,CN1C2CCC1CC(NC(=O)CSc1ccc(C(C)(C)C)cc1)C2 (centres undefined)
3%,-2.6%,17%,-3,COc1ccc(CCNC(=O)COC(=O)c2cc(S(=O)(=O)NCc3ccccc3)ccc2O)cc1OC
-9%,-0.1%,23%,.,Cc1cc(NC(=O)Cc2cc(F)cc(F)c2)no1
-10%,-3.0%,-1%,-2,Cc1cccc(Cn2c(N(C)CCO)nc3c2c(=O)[nH]c(=O)n3C)c1
.,0.1%,-20%,.,Cn1c(-c2ccccc2)c(C#Cc2ccc(N)cc2)c2ccccc21
-1%,1.4%,7%,-6,CN1CCC(OC(=O)COc2ccc(Cl)cc2Cl)CC1
-4%,-0.3%,-8%,3,COc1cc(C2C(C#N)=C(N)Oc3n[nH]c(-c4ccccn4)c32)cc(OC)c1OC (centres undefined)
.,-3.3%,9%,.,c1ccc(Sc2ccccn2)cc1
2%,0.2%,-16%,-5,COC(=O)c1c(N)sc2c1CC(C)(C)OC2
-1%,0.8%,-14%,2,CCc1nnc(NC(=O)CSc2nnc(-c3ccoc3C)n2CC(C)C)s1

Four entries out of the list above, sorted by their value in miR-21 FLuc, largest number first:
| SMILES | miR-21 FLuc |
| --- | --- |
| COc1ccc(CCNC(=O)COC(=O)c2cc(S(=O)(=O)NCc3ccccc3)ccc2O)cc1OC | 3% |
| COc1ccc(CCNS(=O)(=O)c2ccc(-n3cnnn3)c(OC)c2)cc1OC | -1% |
| Cc1nn2c(SCC(=O)c3cccs3)cc(C(C)(C)C)nc2c1-c1ccccc1 | -3% |
| CN1C2CCC1CC(NC(=O)CSc1ccc(C(C)(C)C)cc1)C2 (centres undefined) | -7% |

Other structures follow.
miR-21 FLuc,Rango complex inh,Rango dissoc inh,GLA inh pH 4.5,compound
0%,-0.5%,-12%,.,CCOc1ccc(-n2c(SCC(=O)N3CCC(C(=O)O)CC3)nc3ccccc3c2=O)cc1
.,-0.8%,10%,.,N#Cc1ccc(OCC(=O)NCCN2CCOCC2)cc1
-22%,4.2%,2%,-8,CC(C)(C)c1ccc(OC2=CS(=O)(=O)c3ccccc32)cc1
-3%,3.2%,1%,0,COc1ccc(CN(CC2CCC(C(=O)O)CC2)C(=S)Nc2cccc(C)c2)cc1 (centres undefined)
-8%,-0.3%,-10%,2,CC(NC(=O)COc1ccc(/C=N/NS(=O)(=O)c2ccccc2)cc1)c1ccccc1 (centres undefined)
0%,4.1%,10%,.,O=C(Nc1ccc2c(c1)OCO2)C1CC(=O)N(c2ccccc2)C1 (centres undefined)
-3%,-5.6%,-1%,-4,CCC(=O)OC1CSc2nc3ccccc3n2C1 (centres undefined)
-32%,?,?,.,Cc1occc1C(=O)N/N=C/C=C/c1ccc(N(C)C)cc1
2%,-0.4%,4%,.,CCOc1cccc(-c2c(C(=O)N/N=C/c3cccnc3)nnn2-c2nonc2N)c1
-3%,4.3%,-21%,2,Cc1cc(NC(=O)COc2ncnc3sc(C)c(C)c23)no1
.,-4.3%&4.6%,0%&-8%,.,CCc1nc(N)nc(N)c1-c1ccc(Cl)c(N=[N+]=[N-])c1
1%,4.3%,20%,-8,Cn1c(=O)c2c(nc(N3CCN(c4ccccn4)CC3)n2Cc2ccccc2Cl)n(C)c1=O
-2%,2.6%,7%,-12,CCCOP(=O)(c1ccc(N(C)C)cc1)C(O)c1ccccc1OC (centres undefined)
-2%,-0.4%,-18%,7,O=C(C(=S)N1CCOCC1)c1c[nH]c2ccccc12
.,6.9%,2%,.,C=C(C)C(O)Cc1c(OC)ccc(C(=O)/C=C/c2ccc(O)cc2)c1O (centres undefined)
1%,-1.4%,5%,.,O=C(NC1CCSc2ccccc21)c1cccc(Br)c1 (centres undefined)
-5%,-1.5%,-13%,7,CC1CC(NC(=O)c2ncn[nH]2)CC(C)(C)C1 (centres undefined)
.,0.7%,-2%,.,COc1ccc(S(=O)(=O)NCCC(=O)OCc2cc(=O)oc3cc(C)ccc23)cc1[N+](=O)[O-]
-58%,-2.0%,1%,-2,CC(C(=O)N1CCCCC1)n1sc2ccccc2c1=O (centres undefined)
-5%,0.9%,-14%,2,CN(C)S(=O)(=O)c1ccc(/C(O)=C2/C(=O)C(=O)N(Cc3cccnc3)C2c2ccco2)cc1 (centres undefined)

(list continues)
miR-21 FLuc,Rango complex inh,Rango dissoc inh,GLA inh pH 4.5,compound
0%,5.1%,-22%,.,Cc1ccc(NC(=O)NNC(=O)CN2C(=O)COc3ccccc32)cc1
?,-0.2%,-2%,-7,C=CCn1c(SCc2cc(C(C)=O)ccc2OCC)nc2ccccc2c1=O
-6%,-1.0%,-11%,6,Cc1cc(=O)n2nc(-c3ccccc3)sc2c1C#N
0%,3.9%,-8%,.,O=C(NCc1ccco1)/C(=C\c1cccc([N+](=O)[O-])c1)NC(=O)c1ccco1
-5%,2.6%,0%,-6,CCOC(=O)C(NCCc1ccccc1)(NC(C)=O)C(F)(F)F (centres undefined)
23%,0.1%,0%,0,Cc1ccc(S(=O)(=O)Oc2ccccc2/C=N/N=C(N)N)cc1
21%,2.7%,7%,.,O=C(NCCc1ccc(F)cc1)Nc1ccc([N+](=O)[O-])cc1
2%,-2.4%,-7%,.,COC(=O)N1C(=O)[C@](c2ccccc2)(C(C)C)N1C(=O)OC
-1%,0.8%,3%,2,CCOC(=O)N1CCN(C(=O)CSc2nnc(CNC(=O)c3c(F)cccc3Cl)o2)CC1
1%,-0.6%,-1%,-29,Cc1ccc(NC(=S)NCc2ccccc2)cc1S(=O)(=O)N1CCCCC1
4%,-3.5%,1%,.,Cn1c(CCNC(=O)c2ccco2)nc2cc([N+](=O)[O-])ccc21
1%,-4.0%,-10%,-14,Cc1noc(C)c1COC(=O)CCCNC(=O)c1ccc(Cl)cc1
0%,3.2%,-11%,9,COC(=O)CSc1nnc(-c2ccncc2)n1N
-9%,0.8%,25%,.,Cc1ccc(SCCOCCN2CCOCC2)cc1
-1%,-2.0%,1%,-2,CS(=O)(=O)N(Cc1ccco1)Cc1ccccc1Cl
